Screening data: PubChem, ICCB-Longwood Screening Facility, Harvard Medical School
PV pol inh: inhibitors of poliovirus RNA polymerase binding and polymerization; P03300; poliovirus polymerase elongation, fluorescence polarization; hits give low values; % elongation, % (compound at 16.7 µg/mL); hit rate 0.66% among 150,000; AID 588519; in the data active = % elongation below about 90%; note: some results filed as inactive read as strong as hits
Target sequence (P03300 1749-2209 limits assumed): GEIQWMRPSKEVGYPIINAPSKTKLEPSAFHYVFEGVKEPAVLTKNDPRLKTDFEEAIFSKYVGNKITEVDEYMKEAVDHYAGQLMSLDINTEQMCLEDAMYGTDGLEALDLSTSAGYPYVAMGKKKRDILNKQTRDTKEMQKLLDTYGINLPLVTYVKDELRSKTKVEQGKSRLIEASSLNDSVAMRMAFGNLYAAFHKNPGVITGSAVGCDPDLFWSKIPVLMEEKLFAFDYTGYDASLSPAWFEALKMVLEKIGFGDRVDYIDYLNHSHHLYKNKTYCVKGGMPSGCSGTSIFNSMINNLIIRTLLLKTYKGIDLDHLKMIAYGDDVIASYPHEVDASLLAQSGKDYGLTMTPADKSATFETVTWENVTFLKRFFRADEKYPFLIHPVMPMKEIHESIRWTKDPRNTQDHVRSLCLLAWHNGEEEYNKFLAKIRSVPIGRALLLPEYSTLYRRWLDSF
Mtb MenB inh: blocks the Mycobacterium tuberculosis MenB enzyme; AID 540299; hit rate 0.43% among 100,000; inhibition, %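 (about 12 µg/mL by stock and volumes)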; MenB enzyme assay, absorbance read-out; some hits fall short of the stated cut;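 active = mean of two replicates above 30%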;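 note: 0% = no compound and 100% = wells with inactive enzyme; the first replicate is given; strong numbers were not always called active; inactives centre near -10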
MbtI inh: blocks the Mycobacterium tuberculosis siderophore enzyme MbtI | hit rate 0.89% among 100,000 | AID 493033 | P9WFX0 | inhibition, %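 (about 17 µg/mL by stock and volumes)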 | purified MbtI enzyme, fluorescence intensity read-out;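 active = above 50% in both replicates, above 80% if mildly self-fluorescent; inactive = the rest, strongly fluorescent compounds included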;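 note: 0% = mean of negative and 100% = mean of positive controls; one replicate is shown; some compounds called inactive have numbers as strong as hits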
Target sequence (P9WFX0 whole entry, looked up): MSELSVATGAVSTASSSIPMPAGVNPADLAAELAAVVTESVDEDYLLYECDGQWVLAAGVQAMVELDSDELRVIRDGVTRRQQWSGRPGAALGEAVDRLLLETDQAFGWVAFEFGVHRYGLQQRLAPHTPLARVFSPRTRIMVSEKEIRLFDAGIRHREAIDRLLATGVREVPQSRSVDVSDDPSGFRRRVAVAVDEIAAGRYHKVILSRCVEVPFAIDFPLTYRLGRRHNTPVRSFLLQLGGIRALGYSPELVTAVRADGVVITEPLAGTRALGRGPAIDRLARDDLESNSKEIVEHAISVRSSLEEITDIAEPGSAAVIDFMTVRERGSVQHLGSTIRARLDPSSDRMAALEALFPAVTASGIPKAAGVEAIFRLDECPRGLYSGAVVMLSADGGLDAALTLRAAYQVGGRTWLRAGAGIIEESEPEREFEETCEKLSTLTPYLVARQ
PV pol inh intensity: further read-out of PV pol inh, marked with its call; % elongation; measured here: total intensity read-out; formula for this scale not given here;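 total fluorescence in place of polarization; lower means less elongation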
The depositor's hits bear a star; . = no result given; & = joins results of further samples.

SMILES	PV pol inh	PV pol inh intensity	Mtb MenB inh	MbtI inh
CCCCCSc1nnc(-c2ccccc2NC(C)=O)c(=O)[nH]1	102	104	-11	2
COC(=O)c1ccccc1NC(=O)C1=C(C)C(=O)OC12CCN(C(C)=O)CC2	105	103	-5	-2
O=C(CSC(=S)N1CCCC1)NC1CCCCCC1	107	111	-37	2
N#CC1=C(SCC(=O)c2ccc(F)cc2)NC2(CCCC2)C(C#N)C1=O (stereo unspecified)	110	109	-28	.
CCOC(=O)CC(Nc1nc(N2CCOCC2)nc(N2CCOCC2)n1)c1ccc(C)cc1 (stereo unspecified)	103	109	-10	.
COCCN(C(=S)Nc1ccc(C(C)C)cc1)C1CCN(C(C)C)CC1	102	109	5	-10
CC(NC(=O)NCc1ccccc1)c1nc(-c2ccncc2)n[nH]1 (stereo unspecified)	102	101	-4	10
Cc1cccc(C=Nc2cccc(O)c2)c1	46	254	-9	.
CN(C(=O)Cn1nc(Cc2cccnc2)c2ccccc2c1=O)C1CCCCC1	99	102	-13	-14
O=S(=O)(c1ccc(F)c(F)c1)N1CCN(C(c2ccccc2)c2ccccc2)CC1	102	103	.	-6
Cc1c(C)c(C)c(S(=O)(=O)N2CC(C)CC(C)C2)c(C)c1C (stereo unspecified)	107	103	-14	-9
O=C(OCc1cc(Cl)cc2c1OCOC2)c1cccnc1Cl	108	109	-20	-11
Cc1c(Cl)cnc(NC(=O)COC(=O)C2CC2)c1Cl	109	129	-22	6
O=c1[nH]nc(SCc2nc3ccccc3s2)n1C1CC1	103	111	-4	-8
CCN1CCN(c2ncc(Br)cn2)CC1	103	104	5	-4
CC(CCc1ccccc1)NCc1c(C(=O)O)n(C)c2ccccc12 (stereo unspecified)	100	104	-22	24
CON(C)C(=O)c1ccc(C(C)(C)C)cc1	103	103	-26	0
C=CCNC(=O)CSc1ncc2c(n1)-c1c(csc1SC)CC2	105	110	-15	-15
Cc1ccc(-c2nnsc2-c2nc3ccccc3[nH]2)cc1	101	104	.	-7
CSC(=NC#N)N1CCN(C(=NC#N)SC)CC1	103	105	-11	9
Cn1c(=O)n(C)c2cc(Br)c(N)cc21	105	101	-17	2
CCC1=NN(C(=O)c2ccccc2O)C(O)(c2ccccc2)C1 (stereo unspecified)	102	101	-46	-19
COC(CNC(=O)C1CCN(Cc2nc(-c3ccc(Cl)cc3)oc2C)CC1)OC	105	108	-5	13
NC(=O)c1ccccc1OCC(=O)N1CCOCC1	98	96	-17	20
CC1CC(OC(=O)CN2CCCCC2)CC(C)(C)C1 (stereo unspecified)	99	98	4	3
Cc1cc(C)nc(S/C=C/C(=O)c2ccc(Cl)cc2)n1	108	110	-5	-8
CCOc1ccccc1Nc1nc2cc(Cl)ccc2o1	103	106	.	9
NC1CCN(C(=O)C2CC2)CC1	101	101	17	-1
CCc1ccc(-c2nc3c(C#N)c[nH]n3c2NCCC(C)C)cc1	104	102	-6	10
O=S(=O)(c1ccc2ccccc2c1)N1CCN(Cn2[nH]c(-c3cccs3)nc2=S)CC1	102	103	-20	89
FC(F)(F)c1nnc(-c2ccccc2)o1	102	102	-13	-44
COc1ccccc1-c1cc(C(=O)N2CCCc3ccccc32)no1	100	103	-15	-1
Cc1ccc(-c2nc(C(=O)Nc3ccccn3)c3n2CCCCC3)cc1	106	100	-17	-11
CC(=O)N(C(C)=O)S(=O)(=O)c1ccc(N=NN(C)C)cc1	102	107	-17	.
COc1ccc(N2CCN(CCCNC(=S)Nc3c(C)cccc3C)CC2)cc1	99	94	-11	0
Cc1ccc(N2C(=O)C(CC(=O)Nc3ccccc3)N(Cc3ccc4c(c3)OCO4)C2=O)cc1 (stereo unspecified)	103	102	-13	5
O=C(O)c1cc2ccccc2[nH]1	100	98	6	68
O=C1CC(Nc2ccccc2)C(=O)N1c1cccc(C(F)(F)F)c1 (stereo unspecified)	103	105	-2	-15
CCOC(=O)c1ccc(NC(=S)Nc2cccc(N)n2)cc1	98	100	-14	11
O=C(NCCc1ccc(Cl)cc1)c1cc(=O)[nH]c(=O)[nH]1	103	109	-17	-14
N#Cc1cc(C#N)c(SCC(=O)N2CCNC2=O)nc1N	114	136	-18	27
COC[C@H]1OC(=O)c2coc3c2[C@@]1(C)C1=C(C3=O)[C@@H]2CCC(=O)[C@@]2(C)C[C@H]1OC(C)=O	96	109	.	-26
CC1(C)C2CCC1(CS(=O)(=O)N1CCN(Cc3ccccc3)CC1)C(=O)C2 (stereo unspecified)	.	.	-7	-8
COc1ccc(CCC(=O)Nc2ccc(S(=O)(=O)N(C)C)cc2)cc1OC	99	102	7	17
O=C(Nc1ccccc1)NC1CCN(CCCN2C(=O)c3ccccc3C2=O)CC1	102	103	10	2

Full records, looked up by structure:
COC[C@H]1OC(=O)c2coc3c2[C@@]1(C)C1=C(C3=O)[C@@H]2CCC(=O)[C@@]2(C)C[C@H]1OC(C)=O as listed: PV pol inh: 96; PV pol inh intensity: 109; Mtb MenB inh: .; MbtI inh: -26
CCC1=NN(C(=O)c2ccccc2O)C(O)(c2ccccc2)C1 (stereo unspecified) as listed: PV pol inh: 102; PV pol inh intensity: 101; Mtb MenB inh: -46; MbtI inh: -19

More entries:
SMILES	PV pol inh	PV pol inh intensity	Mtb MenB inh	MbtI inh
CCSc1ccccc1C(=O)Nc1nc2ccccc2c(=O)[nH]1	102	103	5	-22
O=C1N/C(=C/c2ccc(C(F)(F)F)cc2)C(=O)N1c1ccccc1	103	104	-13	-14
Cc1cccc(N2CCN(C(=O)C3CCCN(S(=O)(=O)c4cccc5nonc45)C3)CC2)c1C (stereo unspecified)	103	107	-19	-2
COc1ccc(-c2c(C#N)c(=O)n3c(sc4ccccc43)c2C#N)cc1	110	114	-3	2
CC[N+]1(C)CC2CCC(C)(C1)C2(C)C (stereo unspecified)	102	96	-22	-5
O=C(CSc1nc2ccccc2o1)N1CCCc2ccccc21	101	103	13	14
CCOC(=O)C1=CN(c2ccc(C)c(C)c2)C=C(C(=O)OCC)C1c1ccccc1F	101	101	-18	.
O=C1c2ccccc2C(=O)c2c1oc1c3c(ccc21)OCN(CC1CCCO1)C3 (stereo unspecified)	88*	82*	-27	1
C=CCSc1ncnc2c1cnn2-c1ccc(Cl)cc1	102	95	-5	0
O=C(NC1(C(=O)O)CCCCC1)c1cccs1	100	106	-5	-2
S=C(c1cn(Cc2ccccc2)c2ccccc12)N1CCCCC1	100	101	-93	-65
O=C(c1cccc(F)c1F)N1CCCCC1	104	108	0	.
COC(=O)Cn1cnc2c(cnn2-c2ccccc2C)c1=O	100	108	-5	-7
Cn1c(C2COc3ccccc3O2)n[nH]c1=S (stereo unspecified)	101	103	2	51
CCOC(=O)c1cc2c(ccn2-c2ccc(F)cc2)n1CC(=O)Nc1ccc(OC)cc1	100	102	17	63

Gathered by group: the compounds so far containing a thiophene ring, fused or not
SMILES	PV pol inh	PV pol inh intensity	Mtb MenB inh	MbtI inh
C=CCNC(=O)CSc1ncc2c(n1)-c1c(csc1SC)CC2	105	110	-15	-15
O=S(=O)(c1ccc2ccccc2c1)N1CCN(Cn2[nH]c(-c3cccs3)nc2=S)CC1	102	103	-20	89
O=C(NC1(C(=O)O)CCCCC1)c1cccs1	100	106	-5	-2

Additional compounds follow:
SMILES	PV pol inh	PV pol inh intensity	Mtb MenB inh	MbtI inh
O=C(c1ccc(Cl)cc1)N(Cc1cccs1)C1CCS(=O)(=O)C1 (stereo unspecified)	100	101	-2	-6
CCSC1=NCN(CCCC(=O)O)CN1	101	105	11	1
COCCn1c(C)cc(C(=O)COc2ccc3c(c2)OCO3)c1C	103	103	-11	-2
O=C(Nc1ccc2ccccc2c1)C(=O)c1c(O)[nH]c2ccccc12	102	109	-1	-10
O=C(O)CCc1nn2cnc3sc4c(c3c2nc1=O)CCCC4	100	103	-7	0
NC(=O)CSc1nnc(-c2ccccc2Br)n1Cc1ccccc1	104	106	.	-3
O=C1c2ccncc2C(=O)N1c1ccc(N2CCOCC2)cc1	101	104	-8	-11
CCCNC(=O)NC1CCC(CC)CC1 (stereo unspecified)	105	103	-7	-21
CCOC(=O)c1c(C)nc2c(c1C)c(=O)oc1ccccc12	101	103	31	-3
CC(C(=O)O)c1nn(C)c(=O)c2ccccc12 (stereo unspecified)	103	104	19	2
Cc1nn2c3c(cnc2c1-c1ccccc1)C(=O)CCC3	102	103	-59	-8
Cc1cc(-c2ccccc2)n[nH]1	102&100	108&104	-13	-12&-11
N=C(N)c1ccc(Cl)cc1	107	101	.	-8
Cc1cc(C)c(NC(=O)CSc2nnc(CNC(=O)c3c(F)cccc3Cl)o2)c(C)c1	103	103	-13	30
CC(CCc1ccccc1)NC(=O)CSc1nc2ccccc2[nH]1 (stereo unspecified)	100	107	.	-3
c1ccc(CC2COC(C3=N[C@@H](Cc4ccccc4)CO3)=N2)cc1 (stereo partly specified)	101	106	-1	.
NS(=O)(=O)c1cc(C(=O)OC2CCOC2=O)ccc1Cl (stereo unspecified)	.	.	-33	-1
Cc1ccc(NC(=O)COn2nnc3ccc(S(=O)(=O)N(C)C)cc32)cc1F	97	96	-32	-1
Nc1nc(SCC(=O)c2ccc3c(c2)OCCO3)nc(-c2ccccc2)n1	101	99	-25	-3
CC(C#N)Sc1nnc(-c2cccnc2)n1C1CCCCC1C (stereo unspecified)	100	105	-15	0
Cn1c(C(=O)NCCN2CCCCCC2)cc2sccc21	103	98	11	7
O=C(NC1=NCCCCC1)c1cccc2ccccc12	101	107	.	-18
O=C(CN(C(=O)C1CSC(=O)C1)c1ccccc1F)NCc1ccc2c(c1)OCO2 (stereo unspecified)	103	102	-24	-5
N#Cc1ccc(NC(=O)CN2C(=O)CCC2=O)cc1	102	97	6	1
O=c1oc2ccccc2c2oc3cc(O)c(O)cc3c12	100	101	-4	82
Cc1cc(NC(=O)NCc2ccccc2)no1	100	104	0	-11
c1ccc(CCNCc2ccccc2)cc1	104	102	-11	.
CC(C)c1ccc2[nH]c3c(c2c1)CCCC3=O	102	102	-18	43
COc1ccc(C=C2C(=O)C3(C)CCC2C3(C)C)cc1 (stereo unspecified)	106	109	-14	.
CCOC(=O)c1c(NC(=O)/C=C/C(=O)O)sc2c1CCN(C(C)=O)C2	102	103	-21	16

Brought forward from above: three entries; new compounds follow.
SMILES	PV pol inh	PV pol inh intensity	Mtb MenB inh	MbtI inh
CC(C)c1ccc2[nH]c3c(c2c1)CCCC3=O	102	102	-18	43
COc1ccc(C=C2C(=O)C3(C)CCC2C3(C)C)cc1 (stereo unspecified)	106	109	-14	.
CCOC(=O)c1c(NC(=O)/C=C/C(=O)O)sc2c1CCN(C(C)=O)C2	102	103	-21	16
COc1cc(C(=O)N2CCNCC2)cc(OC)c1OC	101	104	-15	.
O=C(CN1CCN(S(=O)(=O)c2ccc3c(c2)OCCCO3)CC1)N1CCC(c2ccccc2)=N1	101	107	2	-7
c1ccc(Cc2nnc3sc(Nc4ccccc4)nn23)cc1	102	107	-13	-11
COc1cc(=O)[nH]c(SC(C)C(=O)Nc2ccccc2)n1 (stereo unspecified)	100	101	5	7
NC(=O)C1CCCN(Cc2ccc(Cl)cc2)C1 (stereo unspecified)	101	103	-9	-3
Nc1nc(Cc2ccc(F)cc2F)no1	101	91	-17	-8
N#CCc1nnc2n1CCCCC2	103	108	-6	-8
CCCC1C2CN(Cc3ccccc3)CC=C2C(C#N)=C(N)C1(C#N)C#N (stereo unspecified)	76	195	-198	89
CCc1nc(N2CCc3ccccc32)c2sc(=S)n(-c3ccccc3)c2n1	103	109	-12	.
CC(Oc1ccc(Cl)cc1Cl)C(=O)NCCCn1ccnc1 (stereo unspecified)	101	101	4	.
Cc1ccc(CN(Cc2cccnc2)C(=O)Nc2ccccc2)cc1	101	100	-27	2
CCOC(=O)C1CCN(C(=O)CCCn2nc(-c3ccccc3)c3ccccc32)CC1	104	96	-40	-17
N#Cc1nncn1CN1CCN(S(=O)(=O)c2cc(C(F)(F)F)cc(C(F)(F)F)c2)CC1	103	107	-4	-6
O=C1Nc2ccccc2C1=Nc1ccc(-c2nnc3n2CCCCC3)cc1	104	91	-34	-13
Cc1ccc(OCC(=O)Oc2ccc(C)cc2)cc1	99	103	-9	.
Cc1nn(CCCC#N)c(=O)c2cc3sccc3n12	102	103	-9	-12
O=c1c(/C=N/NC2CCS(=O)(=O)C2)c(N2CCCCC2)nc2ccccn12 (stereo unspecified)	101	96	-3	92
Cc1ccc2nc(COC(=O)c3ccc(OCc4c(C)noc4C)cc3)cc(=O)n2c1	99	108	6	52
O=C(NCCc1cnc[nH]1)c1cccs1	101	105	-8	-24
COC(=O)C1=C(C)NC(C)=C(C(=O)OC)C1	101	115	15	2
Cc1cc(-c2c(C(=O)Sc3ccccc3)c(C)nn2-c2ccccc2)no1	102	109	-3	-14
CCOc1ccc(-n2c(O)c(/C=N/Nc3nnc(C)c(=O)[nH]3)c3ccccc3c2=O)cc1	96	100	-38	9
O=C1CCSc2c1cccc2C(=O)NC1CCCCC1	101	99	15	1
Cc1c(-c2ccnc(=S)[nH]2)sc2nc(C(F)(F)F)nn12	100	99	-14	10
Cc1cc(=O)oc2ccccc12	100	100	-15	3
CCN1C(=O)S/C(=C\c2cn(-c3ccccc3)nc2C)C1=S	111	112	-42	0
O=C(Cn1ccc(=O)[nH]c1=O)OCc1ccccc1C(F)(F)F	111	122	-15	9
O=C(Cn1c(=O)oc2cc(S(=O)(=O)NCc3ccccc3)ccc21)N1CCOCC1	101	100	-9	16
